Polio RdRp inh: poliovirus RNA polymerase inhibition; P03300; poliovirus polymerase elongation, fluorescence polarization; stronger effect = lower value; % elongation, % (compound at 16.7 µg/mL); 150,000 tested, 0.66% active; AID 588519; in the data active = % elongation below about 90%; also: some results filed as inactive read as strong as hits
Target sequence (P03300 1749-2209 limits assumed): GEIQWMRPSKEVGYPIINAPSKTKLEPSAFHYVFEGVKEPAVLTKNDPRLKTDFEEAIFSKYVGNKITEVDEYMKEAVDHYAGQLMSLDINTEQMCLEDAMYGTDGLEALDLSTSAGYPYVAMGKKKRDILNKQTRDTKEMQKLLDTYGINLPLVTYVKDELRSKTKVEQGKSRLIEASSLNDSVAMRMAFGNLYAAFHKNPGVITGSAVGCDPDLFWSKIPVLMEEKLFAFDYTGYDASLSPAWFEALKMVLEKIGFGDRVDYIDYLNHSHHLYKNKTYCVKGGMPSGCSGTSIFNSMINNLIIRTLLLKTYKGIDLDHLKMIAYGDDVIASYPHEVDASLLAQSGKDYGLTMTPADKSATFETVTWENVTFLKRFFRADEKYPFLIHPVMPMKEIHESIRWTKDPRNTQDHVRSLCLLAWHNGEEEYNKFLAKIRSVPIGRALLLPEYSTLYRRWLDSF
Polio RdRp inh intensity: second read-out of Polio RdRp inh, no call of its own (marks repeat the call); % elongation; measured here: total intensity read-out; formula for this scale not given here;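 total fluorescence in place of polarization; lower means less elongation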
The depositor's hits bear a star. The list is partial, so the mix of outcomes need not match the whole.

SMILES | Polio RdRp inh | Polio RdRp inh intensity
CCN1C(=O)c2ccccc2Sc2ccc(NC(=O)Cc3ccc(OC)cc3)cc21 | 107 | 114
Cc1ccc(NC(=O)CSc2nc3ccccc3nc2Cc2ccccc2)c(C)c1 | 107 | 99
CCn1ccc2cc(S(=O)(=O)N3CCCN(C(=O)Nc4cccc(SC)c4)CC3)ccc21 | 110 | 115
Cc1ccc(C)c(Nc2cc(C(=O)NC3CCCCC3)c3ccccc3n2)c1 | 103 | 105
Cc1ccc(NC(=O)Nc2cn(C)c(=O)c3ccccc23)c(Cl)c1 | 80* | 79*
COc1cc(NS(=O)(=O)c2cnc(N)nc2)cc(OC)c1 | 113 | 117
Cc1ccc(C(=O)Nc2cc3c(cc2N2CCCC2)n(C)c(=O)c(=O)n3C)cc1 | 106 | 104
CCOc1ccccc1CN(CCc1ccc2c(c1)OCO2)Cc1ccc(CC)cc1 | 98 | 94
Cc1ccccc1C(=O)Nc1cccc(C(=O)OCc2cc(=O)n3nc(C4CC4)sc3n2)c1 | 111 | 114
O=C(Cc1ccc(Cl)cc1)NCC(c1cccs1)S(=O)(=O)c1ccccc1 (configuration not stated) | 107 | 110
COc1ccc(Cn2c(C(=O)O)c(CNC3CCCC3)c3ccc(C)cc32)cc1 | 112 | 116
COc1ccc(NC(=O)CSC2=Nc3ccccc3C3=NC(Cc4ccccc4)C(=O)N23)cc1 (configuration not stated) | 106 | 110
COc1ccc(C(=O)NCC(c2cccnc2)N2CCN(c3ccccc3F)CC2)cc1OC (configuration not stated) | 107 | 111
Cc1nnc(N2CCCC(C(=O)Nc3cccc(C(F)(F)F)c3)C2)c2nn(-c3ccccc3)c(C)c12 (configuration not stated) | 111 | 109
CCCCc1nc2ccccc2c(=O)n1-c1cccc(OC)c1 | 105 | 106
CCS(=O)(=O)N1CCc2cc(C(=O)NC(C)c3ccccc3)ccc21 (configuration not stated) | 108 | 113
COc1ccc(-c2nc3scc(CCNS(=O)(=O)c4ccc5c(c4)OCCO5)n3n2)cc1OC | 108 | 111
COc1ccc(-c2nc3sc(CCNC(=O)C(=O)Nc4ccc(OC)c(OC)c4)c(C)n3n2)cc1 | 105 | 104
Cc1cc(NC(=O)c2ccc3c(c2)N(Cc2cccc(Cl)c2)C(=O)c2ccccc2S3=O)ccc1Br (configuration not stated) | 109 | 113
CCCCSCCCNC(=O)c1cn(C)c2ccc(S(=O)(=O)N3CCCCCC3)cc2c1=O | 107 | 109
COc1ccc(-c2nc(SCCOc3cc(C)ccc3C(C)C)n3[nH]c(=O)cc3n2)cc1 | 102 | 104
CCOc1ccccc1NC(=O)C1CCN(S(=O)(=O)c2ccc3[nH]c(=O)oc3c2)CC1 | 100 | 106
CCc1c(C)c2cc3c(c(C)c2oc1=O)OCN(CCc1ccc(OC)c(OC)c1)C3 | 109 | 105
COCCCNS(=O)(=O)c1cc(-c2onc(C)c2C)ccc1OC | 102 | 95
Cc1cccc(C(=O)Nc2sc3c(c2C(=O)NC(C)C)CCCC3)c1 | 101 | 106
Cc1ccc(Nc2cc(C)nc(-n3nc(C)cc3C)n2)cc1 | 110 | 105
Cc1cnc(=O)[nH]c1SCC(=O)Nc1cc(C(F)(F)F)ccc1Cl | 96 | 102
Cc1ccc2nc(NCc3ccc(F)cc3)c3nncn3c2c1 | 109 | 104
CCc1nn2c(-c3ccccc3OC)ccnc2c1-c1ccccc1 | 105 | 112
CN(C(=O)CSc1nc2ccc(NC(=O)COc3ccc(Cl)cc3)cc2s1)c1ccccc1 | 111 | 112
CCC(C)NC(=O)c1cnn(-c2cccc(F)c2)c1-n1cccc1 (configuration not stated) | 106 | 113
CCc1ccccc1N(CC)C(=O)c1c(C)oc2ncnc(N3CCOCC3)c12 | 101 | 103
CCC(C)NC(=O)CN1C(=O)c2cccnc2Sc2ccccc21 (configuration not stated) | 111 | 111
Cc1ccc(OCCSc2nc3ccccc3n2CCC(=O)O)cc1C | 105 | 110
COc1ccccc1N1CCN(C(=O)Cn2ncc3c2-c2cc(C)ccc2OC3)CC1 | 104 | 107
CCN1CCN(Cc2c(O)ccc3c(C)c(-c4ccc(OC)cc4)c(=O)oc23)CC1 | 106 | 95
Cc1ccc2nc(-c3cccc(NC(=O)c4ccc(Br)o4)c3)oc2c1 | 109 | 113
COc1c(Cl)cc(Cl)cc1CNCCSc1nnnn1C | 102 | 107
CCN(CC)CCNC(=O)Nc1ccc2c(c1)N(Cc1ccccc1)C(=O)c1ccccc1S2 | 105 | 110
Cc1ccccc1NC(=O)CSc1ccc(-c2ccccn2)nn1 | 115 | 114

Ordered by length of the SMILES (descending): some entries from above
SMILES | Polio RdRp inh | Polio RdRp inh intensity
CCOc1ccccc1NC(=O)C1CCN(S(=O)(=O)c2ccc3[nH]c(=O)oc3c2)CC1 | 100 | 106
COc1ccc(-c2nc(SCCOc3cc(C)ccc3C(C)C)n3[nH]c(=O)cc3n2)cc1 | 102 | 104
CN(C(=O)CSc1nc2ccc(NC(=O)COc3ccc(Cl)cc3)cc2s1)c1ccccc1 | 111 | 112
CCc1c(C)c2cc3c(c(C)c2oc1=O)OCN(CCc1ccc(OC)c(OC)c1)C3 | 109 | 105
COc1ccccc1N1CCN(C(=O)Cn2ncc3c2-c2cc(C)ccc2OC3)CC1 | 104 | 107
CCc1ccccc1N(CC)C(=O)c1c(C)oc2ncnc(N3CCOCC3)c12 | 101 | 103
Cc1ccc2nc(-c3cccc(NC(=O)c4ccc(Br)o4)c3)oc2c1 | 109 | 113
Cc1cccc(C(=O)Nc2sc3c(c2C(=O)NC(C)C)CCCC3)c1 | 101 | 106
CCC(C)NC(=O)c1cnn(-c2cccc(F)c2)c1-n1cccc1 (configuration not stated) | 106 | 113
COCCCNS(=O)(=O)c1cc(-c2onc(C)c2C)ccc1OC | 102 | 95
CCC(C)NC(=O)CN1C(=O)c2cccnc2Sc2ccccc21 (configuration not stated) | 111 | 111
Cc1ccc(Nc2cc(C)nc(-n3nc(C)cc3C)n2)cc1 | 110 | 105
Cc1ccccc1NC(=O)CSc1ccc(-c2ccccn2)nn1 | 115 | 114
Cc1ccc2nc(NCc3ccc(F)cc3)c3nncn3c2c1 | 109 | 104
COc1c(Cl)cc(Cl)cc1CNCCSc1nnnn1C | 102 | 107

A second format for 3 compounds above.
Compound	Polio RdRp inh	Polio RdRp inh intensity
Cc1nnc(N2CCCC(C(=O)Nc3cccc(C(F)(F)F)c3)C2)c2nn(-c3ccccc3)c(C)c12 (configuration not stated)	111	109
CCN1C(=O)c2ccccc2Sc2ccc(NC(=O)Cc3ccc(OC)cc3)cc21	107	114
CCC(C)NC(=O)c1cnn(-c2cccc(F)c2)c1-n1cccc1 (configuration not stated)	106	113

Next section:
SMILES | Polio RdRp inh | Polio RdRp inh intensity
Cc1ccsc1CN(C(=O)COc1ccc(Br)cc1)C1CCS(=O)(=O)C1 (configuration not stated) | 121 | 121
Cc1ccc(CNC(=O)CCCn2nc(C)n3c(cc4sccc43)c2=O)cc1 | 102 | 107
COc1ccc(S(=O)(=O)N(Cc2nc(-c3ccc(C)cc3)no2)C2CCCCC2)cc1 | 115 | 110
CCOc1ccc(N(CC)S(=O)(=O)N2CCCC(C(=O)Nc3ccc(C(C)=O)cc3)C2)cc1 (configuration not stated) | 110 | 110
Cn1c(=O)cc(SCC(=O)NCCc2ccc(Cl)cc2)c2cc(Cl)ccc21 | 104 | 103
COCCNc1ccc(-c2nc(-c3ccco3)no2)cc1[N+](=O)[O-] | 102 | 109
CCOc1ccc(NC(=O)Cn2c(C)cc3ccccc3c2=O)cc1 | 106 | 109
Cc1oc(-c2ccc(C(=O)NCCC(C)C)cc2)nc1CS(=O)(=O)c1ccccc1 | 110 | 113
Cc1cc(C)c(S(=O)(=O)NCCc2cc3c(C)ccc(C)c3[nH]c2=O)c(C)c1 | 108 | 113
COc1ccc(NC(=O)C2=C(C)C(=O)OC23CCN(C(C)C)CC3)cc1Cl | 104 | 107
O=C(NCC(c1ccc(Cl)cc1)N1CCOCC1)c1ccccc1F (configuration not stated) | 109 | 107
O=C(Cn1ncc2c3ccccc3n(Cc3ccc(Cl)cc3)c2c1=O)NCc1ccccn1 | 122 | 128
CC(=O)N1CCCc2cc(S(=O)(=O)N(C)CC(=O)Nc3ccc(F)c(Cl)c3)ccc21 | 104 | 103
Cc1ccc(S(=O)(=O)N2CCCc3cc(NS(=O)(=O)c4cccc(Cl)c4)ccc32)cc1 | 104 | 109
CC(Oc1ccccc1)C(=O)N1CCN(Cc2cc(=O)n3nc(-c4ccccc4Cl)sc3n2)CC1 (configuration not stated) | 103 | 111
Cc1ccc(-c2nc3c4ccccc4[nH]c(=O)n3n2)cc1 | 108 | 110
O=C(Nc1ccccc1OCc1cc(=O)n2ccccc2n1)c1cccc(Br)c1 | 111 | 109
COc1ccc(Cl)cc1NC(=O)CSc1nc2ccccc2nc1N1CCCCC1 | 105 | 102
Cc1ccc(S(=O)(=O)N(CC(=O)Nc2ccc(C(C)C)cc2)Cc2ccccc2)cc1 | 106 | 106
COc1ccc2c(c1)c1c(c(=O)n(-c3ccc(OC)c(OC)c3)c(=O)n1Cc1ccccc1C)n2C | 109 | 106
COc1cccc(N2CCN(c3ncnc4onc(-c5ccc(Cl)cc5)c34)CC2)c1 | 100 | 94
COc1ccc(-n2c(=O)c3c(c4cc(OC)ccc4n3C)n(CC(=O)N3CCCC3)c2=O)cc1 | 104 | 92
Cc1cc2c(n1-c1ccc(C(=O)NCCc3ccc(Cl)cc3)cc1)CCC(C)C2 (configuration not stated) | 99 | 105
CC1CN(C(=O)NCc2ccccc2)c2cc(Cl)ccc2O1 (configuration not stated) | 110 | 105
CCOC(=O)c1c(C)[nH]c(C)c1S(=O)(=O)N1CCC(C(=O)NCc2ccccc2Cl)CC1 | 104 | 99
Cc1ccc(C)c(N2CCN(c3c(CN4CCCC4)c(=O)oc4ccccc34)CC2)c1 | 107 | 110
CCOC(=O)c1ccc(NC(=O)c2sc3nc4c(cc3c2N)N2CCC4CC2)cc1 | 105 | 107
COc1ccc(N2C(=O)C(CC(=O)Nc3ccc(F)cc3)N(CCC3=CCCCC3)C2=O)cc1 (configuration not stated) | 103 | 101
COc1ccccc1-c1noc(CCCC(=O)Nc2cccc(C(F)(F)F)c2)n1 | 103 | 108
CN1C(=O)c2ccccc2Sc2ccc(NC(=O)c3ccc(C(F)(F)F)cc3)cc21 | 106 | 113
CCC(Nc1ccc(-c2nc(-c3cccnc3)no2)cc1[N+](=O)[O-])c1ccccc1 (configuration not stated) | 111 | 120
CCOc1ccc(Oc2nc(NCC(C)C)nc(N3CCOCC3)n2)nn1 | 105 | 104
COc1ccc(NC(=O)c2c(NC(=O)c3cccc(C)c3)sc3c2CCC3)cc1 | 111 | 115
COc1ccc(OCC(=O)NCC(c2ccc(OC)cc2)N2CCCCC2)cc1 (configuration not stated) | 102 | 103
CCCOc1ccc(-c2nn(-c3ccccc3)cc2C2NC(=O)NC(C)=C2C(=O)OC(C)C)cc1 (configuration not stated) | 103 | 105
CC(C)CCNC(=O)c1cc(-c2ccc(Br)s2)nc2ccccc12 | 110 | 113
COc1ccc(CNC(=O)c2cc3cc4cc(OC)ccc4nc3o2)cc1 | 111 | 113
Cc1cccc(Cn2nnc3c(=O)[nH]c(C4CCN(C(=O)c5ccc(F)cc5)CC4)nc32)c1 | 113 | 111
COc1ccc(CCNC(=O)c2cc3n(n2)CCCN(Cc2ccc(C)cc2)C3=O)cc1OC | 106 | 111
CCc1ccc(NC(=O)c2ccc3[nH]c(C)c(C)c3c2)cc1 | 106 | 95
CC(=O)c1cc(-c2ccc(F)cc2)n(CC(=O)NCc2ccc(C)cc2)c1C | 107 | 114
CCOC(=O)c1ccc(NC(=O)CCn2c(=O)c3cccn3c3ccccc32)cc1 | 119 | 114
COc1ccc(NC(=O)Cn2c(=O)n(Cc3ccco3)c(=O)c3sc4ccccc4c32)c(OC)c1 | 107 | 109
O=C(CCn1cnc2onc(-c3ccc(F)cc3)c2c1=O)N1CCN(c2cccc(Cl)c2)CC1 | 106 | 108
CCc1nn(CCCC(=O)NCc2ccc(OC)c(OC)c2)c(=O)c2cc3occc3n12 | 114 | 113
COc1cccc(NC(=O)C2CCCN2S(=O)(=O)c2ccc3c(c2)n(C)c(=O)c(=O)n3C)c1 (configuration not stated) | 106 | 106
COc1ccccc1-c1c(C)nn2c(N3CCN(c4ccccc4)CC3)cc(C)nc12 | 103 | 111
CCC(C)OC(=O)/C(C#N)=C/c1ccc(-c2ccc(Br)cc2)o1 (configuration not stated) | 107 | 107
Cc1ccc(CN2C(=O)C(O)(CC(=O)c3ccc(C)cc3)c3ccccc32)cc1 (configuration not stated) | 108 | 110
O=C(NCc1ccccc1)c1ccc2c(c1)N(Cc1ccccc1)C(=O)c1ccccc1S2(=O)=O | 107 | 111
Cc1nc2ccn(Cc3ccccc3)c(=O)c2cc1C(=O)Nc1ccc(F)cc1Cl | 114 | 114
CCc1ccc(CNC(=O)c2cc3c(s2)-c2ccccc2OC3)cc1 | 102 | 107
Cc1cc(C)c(NC(=O)c2ncoc2-c2ccco2)c(C)c1 | 112 | 110
CCOc1cc(C(=O)Nc2ccc(-c3nc4ncccc4o3)cc2C)cc(OCC)c1OCC | 100 | 106
Cc1ccc(CN(C(=O)c2ccccc2)c2ccccn2)o1 | 106 | 98
Cc1ccc(CCNC(=O)CCSCc2ccccc2Cl)cc1 | 107 | 106
CCc1ccc(Cn2c(CNS(=O)(=O)c3ccc(F)c(Cl)c3)nc3cccnc32)cc1 | 99 | 109
COc1ccc(-c2nc3scc(CCNS(=O)(=O)c4ccc5c(c4)OCCO5)n3n2)cc1 | 105 | 100
O=C(Cn1ncc2ccsc2c1=O)N1CCN(c2ccc(F)cc2)CC1 | 108 | 110
O=C(Nc1ccc(Cl)cc1)c1cc2c(-c3ccccc3)nn(-c3ccccc3)c2s1 | 107 | 107
Remaining list, next part:
SMILES | Polio RdRp inh | Polio RdRp inh intensity
CC1CCC(NC(=O)c2ccc(CS(=O)(=O)c3c(Cl)cccc3Cl)o2)CC1 (configuration not stated) | 105 | 107
O=C(COC(=O)C(Cc1c[nH]c2ccccc12)NC(=O)c1ccc(Cl)cc1)c1ccc(Cl)cc1 (configuration not stated) | 109 | 114
CCCCn1c(SCC(=O)c2ccccc2)nc2sc3c(c2c1=O)CCCC3 | 106 | 113
C=C(C)Cn1c(SCC(=O)Nc2cc(C)ccc2C)nc2sc3c(c2c1=O)CCCC3 | 102 | 104
